HSD17B inh: HSD17B dehydrogenase inhibition; Potency, µM (doses to about 57.1 µM), without a hit: at the top dose activity change, negative = inhibition, usual class: inhibitors; AID 893; recombinant HSD17B10, NADH fluorescence kinetic; many of its hits are not listed in these tables; hit rate 7.6% among 75,000; active = well fitted inhibition curve with a large enough effect; inconclusive = small, poorly fitted or top-dose-only effect; inactive = no such curve, though single readings can be large or run the other way;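 note: the protocol describes HADH2 (HSD17B10) and not the HSD17B4 of the title; nearly all actives have a fitted effect of over 70% in size; most hits overshoot -100% by far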
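His-tagged E. coli-expressed HADH2 at 20 nM in 100 mM Tris-HCl pH 9.0 with 0.01 % Tween-20, preincubated 15 min with compound at room temperature. Reaction with 1 mM NAD+ and 90 uM beta-hydroxybutyryl coenzyme A; NADH fluorescence (360/450 nm) read kinetically over 4 min, last minus first point.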
* = called active by the depositor; ? = inconclusive; [ ] = another dose, or the depositor's remark. % is set by controls: 0 for no effect and ±100 for the full control effect; potency is the fitted concentration of half-maximal effect.

SMILES	HSD17B inh
COc1cccc(N2C(=O)Nc3ccccc3C2(O)C(=O)NCc2ccc3c(c2)OCO3)c1 (stereo not drawn)	-6.4%
COc1ccc(C(CC(=O)O)NC(=O)c2ccccc2)cc1OC (stereo not drawn)	4.3%
CN(C)c1nc(SCC#N)nc(N(C)C)n1	-14.8%
Cc1ccc(OCc2nnc(SCC(=O)c3ccccc3)n2Cc2ccco2)cc1	-17.2%
CCC(C)NC(=O)C1c2ccccc2C(=O)N1Cc1ccccc1OC (stereo not drawn)	-2.5%
COCCNC(=O)CN(c1cc(Cl)ccc1OC)S(C)(=O)=O	2.1%
O=C(O)c1nnsc1COCc1ccccc1	5.5%[11.4 µM]
COc1ccc(-c2ccc(Nc3ccc(S(=O)(=O)N4CCCC4)cc3)nn2)cc1OC	-5.9%
COc1ccc(N2C(=O)C3CCCN3C2c2cccc(C)c2)cc1 (stereo not drawn)	6.6%
CCOCCCNS(=O)(=O)c1cc(Br)cc2c1N(C(=O)C1CC1)CC2	7.5%
Cc1ccc(-c2nn3nnnc3c3ccccc23)cc1	-7.3%
CCOC(=O)c1cc(C)sc1N1C(=O)C2C3C=CC(C3)C2C1=O (stereo not drawn)	4.6%
O=C(Nc1ccc(NC(=O)C2CC2)nc1)c1cccc(F)c1	10.7%
CCOc1ccccc1C(=O)NCCC(=O)O	19.8%
c1cnc(N2CCN(Cc3c[nH]c4ccccc34)CC2)nc1	-3.1%
COCC(C)NC(=O)c1ccc(N(C)C)cc1 (stereo not drawn)	4.6%
COc1ccc2c(c1)[C@]1(C)CCC(=O)C[C@H]1CC2	-10.4%
Cc1ccc(S(=O)(=O)CC(C)N2CCOCC2)c(S(=O)(=O)CC(C)N2CCOCC2)c1 (stereo not drawn)	1.5%
CCN(CC)S(=O)(=O)c1cccc(C(=O)Nc2cccnc2)c1	6.9%
O=C(C1CC1)N1CCc2cc(S(=O)(=O)N(CCO)Cc3ccccc3)ccc21	-7.3%
COc1ccc(N2CC(C(=O)Nc3ccc(F)cc3F)CC2=O)cc1 (stereo not drawn)	7.9%
CC(C)(C)C(=O)C1C(=O)c2ccccc2C1=O	2.3%
COC(=O)[C@H](C)NC(=O)Nc1cccc(C(F)(F)F)c1	9.8%
COC(=O)N1[C@H](C)C=C[C@]1(Cc1ccccc1)C(=O)NCc1ccc(N(C)C)cc1	0.7%
CCOC(=O)C(NC(C)=O)(N1CCOCC1)C(F)(F)F (stereo not drawn)	8.3%
CC(=O)n1cc(C2C(=O)CC(C)(C)CC2=O)c2ccccc21	-0.7%
C1=CC2C3C=CC(C3)C2C1 (stereo not drawn)	-3.1%
CCOC(=O)N1CCC(N2CC34C=CC(O3)C(C(=O)Nc3ccc(OCC)cc3)C4C2=O)CC1 (stereo not drawn)	1.8%
N=c1sccn1CC(=O)Nc1ccc2c(c1)CCC2	2.7%
CCNc1nc(NC(C)C)nc(N(C#N)CCOc2ccc(Cl)cc2Cl)n1	?
COc1ccccc1N1CCN(CCN(C(=O)c2ccc(F)cc2)c2ccccn2)CC1	3.7%
COc1cccc(-n2c(C)nnc2SCC#N)c1	0.8%
O=C(NCc1ccc2c(c1)OCO2)c1nn2cccnc2c1Cl	0.1%
CCOC(=O)c1ccc(NS(=O)(=O)c2ccc(SC)cc2)cc1	-4.6%
O=S(=O)(c1cccc(-c2nn3c(-c4ccncc4)nnc3s2)c1)N1CCOCC1	1.7%
COc1ccc(NC2c3ccccc3C(=O)N2c2cccnc2)cc1Cl (stereo not drawn)	9.5%
COc1ccc(-c2ccc(-c3nnn(CC(C)=O)n3)cc2)cc1	-10.8%
CN(c1ccc(C(=O)NCCC2=CCCCC2)cc1)S(C)(=O)=O	8.4%
Cc1cc(=O)n2nc(N3CCCC(C(=O)NCc4ccco4)C3)sc2n1 (stereo not drawn)	-2.3%
Nc1nc2n(n1)C(c1ccccc1Cl)CC(c1ccc(F)cc1)N2 (stereo not drawn)	-4.8%
CCOc1ccc(C2c3c(oc4ccccc4c3=O)C(=O)N2CCCN2CCOCC2)cc1OCC (stereo not drawn)	0.4%
O=c1[nH]c2sc3c(c2c2nncn12)CCCC3	?
CC1CC(C)CN(CCCNC(=O)c2ccc3c(c2)NC(=O)C(N2CCCCC2)S3)C1 (stereo not drawn)	4.8%
COCc1cc(C)nc2sc3c(=O)oc(C)nc3c12	-29.9%
COC(=O)CN(Cc1ccco1)S(=O)(=O)c1ccccc1	2.9%
COC(=O)C1CCN(c2cc(=O)n(-c3ccc(OC)cc3)c(=O)[nH]2)CC1	7.8%
COc1ccc(C(=O)OCn2nnc3ccccc3c2=O)cc1OC	-7.4%
CC(=O)OC1CC[C@@]2(C)C(CC[C@@]3(C)C2CC=C2C4CC(C)(C)CC[C@]4(C)CC[C@@]23C)C1(C)C (stereo partly drawn)	4.0%
O=C(NCCCN=C1NS(=O)(=O)c2ccccc21)c1ccc(S(=O)(=O)N2CCCCC2)cc1	-4.2%
COc1ccc(-c2nc3oc4cc(OC)ccc4c(=O)c3c(=O)n2Cc2ccco2)cc1	?

Other compounds:
SMILES	HSD17B inh
CCCc1nnc(NC(=O)c2cccc(OC)c2)s1	-1.1%
COc1ccc2[nH]cc(CCNc3ccnc(-c4c(C)noc4C)n3)c2c1	9.7%
COc1cc(C(=O)NCc2nnc(SCC(=O)N3CCc4ccccc43)o2)cc(OC)c1OC	4.3%
O=C(Cc1ccccc1)Nc1ccccc1N1CCN(c2ccccc2)CC1	0.1%
O=C(O)c1cc2c(s1)CCCC2	9.5%
CN(C)CCNc1oc(COc2cccc(Cl)c2)nc1C#N	-3.9%
COc1cc(C2C(C#N)=C(N)Oc3n[nH]c(C)c32)cc2c1OCO2 (stereo not drawn)	-4.5%
N#Cc1ccc(COC(=O)CSc2nnc(C3CCCCC3)n2N)cc1	7.1%
CCOC(=O)CSc1nc2ccccc2n1CC(=O)NC(C)(C)C	7.1%
CSc1nsc(SC)c1NC(=O)Nc1ccccn1	-10.6%
N#CCc1ccc(NS(=O)(=O)c2cccs2)cc1	-3.8%
Cc1cn(C2CC3OCC3O2)c(=O)[nH]c1=O (stereo not drawn)	4.8%
COc1ncc2nc(-c3ccc(Cl)cc3)c(=O)n(C[C@H]3CCCO3)c2n1	25.1µM*
CC(C)CCNC(=O)Cn1cc2c(n1)CCCCC2	12.4%
COCCNc1ncnc2ccc(-c3c(C)noc3C)cc12	?
O=S(=O)(c1ccccc1)N1CN2CN(C1)CN(S(=O)(=O)c1ccccc1)C2	2.1%[11.4 µM]
CCc1c(C(=O)N2CCOCC2)csc1C	7.7%
CC(C)(C)NC(=O)C(c1ccco1)N(Cc1ccc(F)cc1)C(=O)c1snc(C(N)=O)c1N (stereo not drawn)	25.1µM*
CC1=CC(=C2C(=O)c3ccccc3C2=O)C=C(C)N1Cc1ccco1	-17.1%
CCC(=O)Nc1ccc(C(=O)c2ccccc2)cc1	4.5%
COc1cccc(OC)c1NC(=O)Cc1nn(C)c(=O)c2ccccc12	-3.2%
Cc1c(CNCc2cccs2)c(C(=O)O)c(C)n1Cc1ccccc1	-3.6%
c1ccc2[nH]c(CSc3nc4ccccc4o3)nc2c1	-18.2%
CCCCCN(CCCCC)C(=O)[C@H](CCC(=O)O)NC(=O)c1ccc(Cl)c(Cl)c1	4.5%[25.6 µM]
CO[C@H]1COC(=O)[C@H](C)NC(=O)[C@@H](C)COC(=O)[C@H]2CCCN2C(=O)C/C=C\[C@H]1C	1.9%[11.4 µM]
CCn1c(SCC(=O)C(C)(C)C)nnc1-c1cccnc1	-1.7%
CCN(CCCNC(=O)C1CCC(=O)N1Cc1ccc(F)cc1)c1cccc(C)c1 (stereo not drawn)	2.2%
COc1cccc(NC(=O)c2ccc(CN3CCN(c4ccccc4)CC3)cc2)c1	97.6%[activator]
CCn1cc(C(=O)O)c(=O)c2cc(OC)ccc21	?
CC1(c2ccc3c(c2)OCO3)NC(=O)N(CC(=O)NCCC2=CCCCC2)C1=O (stereo not drawn)	1.5%

Reprinted from the part before: 6 compounds, then new ones.
SMILES	HSD17B inh
CO[C@H]1COC(=O)[C@H](C)NC(=O)[C@@H](C)COC(=O)[C@H]2CCCN2C(=O)C/C=C\[C@H]1C	1.9%[11.4 µM]
CCn1c(SCC(=O)C(C)(C)C)nnc1-c1cccnc1	-1.7%
CCN(CCCNC(=O)C1CCC(=O)N1Cc1ccc(F)cc1)c1cccc(C)c1 (stereo not drawn)	2.2%
COc1cccc(NC(=O)c2ccc(CN3CCN(c4ccccc4)CC3)cc2)c1	97.6%[activator]
CCn1cc(C(=O)O)c(=O)c2cc(OC)ccc21	?
CC1(c2ccc3c(c2)OCO3)NC(=O)N(CC(=O)NCCC2=CCCCC2)C1=O (stereo not drawn)	1.5%
O=C(CCSc1nnc(-c2ccncc2)o1)Nc1ccc(Cl)cc1	3.1%
C=CCSC1=N/C(=C\c2cc(OC)c3c(c2)OCO3)C(=O)S1	-19.5%
CC1=Nc2ccccc2N=C(NC(=O)CSc2nnnn2-c2ccccc2)C1c1ccccc1 (stereo not drawn)	3.5%
O=C(NCCCn1ccnc1)c1cn(Cc2ccc(F)cc2)nn1	2.4%
COc1ccc(C)c(Cn2c(-c3nonc3N)nc3ccccc32)c1	5.8%
CCCCOc1cccc(C(=O)Nc2ccc(N3CCN(CC)CC3)cc2)c1	-2.9%
CC1CN(C(=O)c2cc3cc(Cl)cc(Cl)c3oc2=O)CC(C)O1 (stereo not drawn)	-9.2%
CCOC(=O)C1=C(N)Oc2ccc(Br)cc2[C@@H]1[C@@H](C#N)C(=O)OCC	?
COC(=O)c1ccc(CSc2nc3c(cnn3-c3ccc(Cl)cc3)c(=O)[nH]2)o1	-5.7%
COC(=O)NCC(C)OC(=O)Nc1cccc(Cl)c1 (stereo not drawn)	9.8%

Part of the list above in a different format:
SMILES | HSD17B inh
CC1CN(C(=O)c2cc3cc(Cl)cc(Cl)c3oc2=O)CC(C)O1 (stereo not drawn) | -9.2%
COC(=O)NCC(C)OC(=O)Nc1cccc(Cl)c1 (stereo not drawn) | 9.8%
COc1ccc(C)c(Cn2c(-c3nonc3N)nc3ccccc32)c1 | 5.8%
CC1=Nc2ccccc2N=C(NC(=O)CSc2nnnn2-c2ccccc2)C1c1ccccc1 (stereo not drawn) | 3.5%

The results go on.
SMILES	HSD17B inh
COc1ccc(N2C(=O)CCC2=O)cc1	-5.4%
O=C(CSc1nc2ccccc2c(=O)[nH]1)N1CCCCC1	0.6%
FC(F)(F)c1ccc(CN2C[C@@H]3C(c4ccccc4)C4(c5cccnc5)CC3(C4)[C@H]2c2ccccc2)cc1 (stereo partly drawn)	-5.9%
O=C1C=C[C@@H](O)[C@H]2[C@@H]3C(=O)N(C4CCCCC4)C(=O)[C@@H]3CC[C@H]12	6.3%[11.4 µM]
Cc1cc(C(=O)OCC(=O)N2C(C)CCCC2C)c(C)o1 (stereo not drawn)	9.5%
COc1ccc2[nH]c(=O)c(CN(C(=O)C3CCCO3)c3cccc(C)c3)cc2c1 (stereo not drawn)	-28.7%
O=C(c1ccco1)c1cn[nH]c1-c1ccc(Cl)cc1O	4.9%
CCCCOc1ccc(/C(O)=C2/C(=O)C(=O)N(CCCOC)C2c2ccncc2)cc1 (stereo not drawn)	5.1%
CCOC(=O)c1ccc(N2C(=O)c3n[nH]c(C)c3C2c2ccc(OC)cc2)cc1 (stereo not drawn)	-24.3%
CN1C(=O)c2ccccc2N(C)C1c1cccs1 (stereo not drawn)	31.6µM*
CCCC1(C(=O)OC)NC(c2cccc(F)c2)C2C(=O)N(CC)C(=O)C21 (stereo not drawn)	-0.6%
CC(=O)OC1CC(OC(C)=O)[C@]2(C)C(CC(OC(C)=O)[C@]3(C)C2CC[C@@]2(C)C(c4ccoc4)OC(=O)C4O[C@]432)C1(C)C (stereo partly drawn)	0.8%
COc1ccccc1CNc1nc(-c2ccc3c(c2)OCO3)nc2ccccc12	-17.9%
COc1ccc(CN2CCN(C(=O)c3ccco3)CC2)cc1OCc1ccccc1	-2.3%
CCC(=O)CC(NC(=O)OC)c1ccccc1 (stereo not drawn)	5.7%[11.4 µM]
O=C(CC1Nc2ccccc2NC1=O)NCCCN1CCCCCC1 (stereo not drawn)	?
O=C(CSc1nnc(CNc2ccc(F)cc2)o1)N1CCN(C(=O)c2ccco2)CC1	-3.6%
COC(=O)c1sccc1NC(=O)c1ccc(Cl)s1	-29.3%
CC(Oc1ccc2c(-c3ccccc3)cc(=O)oc2c1)C(=O)O (stereo not drawn)	-15.1%
O=C(CSc1n[nH]c(=O)n1C1CC1)Nc1cc(Cl)ccc1Oc1ccccc1	5.0%
Cc1ccc(-c2nn3c(C)nnc3s2)cc1NC(=O)c1cccs1	-4.7%
Cn1cc(C2NC(=O)c3c(sc4c3CCCC4)N2)c2ccccc21 (stereo not drawn)	?
CC1=C(C(=O)Nc2ccccc2)C(c2ccco2)C(C#N)=C(SCC(=O)Nc2cccc(C)c2C)N1 (stereo not drawn)	?
COc1ccc(OC)c(NC(=O)CCNS(=O)(=O)c2cccs2)c1	0.0%
O=C(NCc1cccs1)C(NS(=O)(=O)c1cccc2nsnc12)c1ccccc1 (stereo not drawn)	1.9%
Clc1ccc2c(c1)C1OCCC1C(c1ccco1)N2 (stereo not drawn)	10µM*
CCc1c(C)nc2c(C#N)c[nH]n2c1=O	?
CC(N=C(NC#N)Nc1ccncc1)C(C)(C)C (stereo not drawn)	-1.1%
Cc1cccc(C)c1OCCCCc1c(C)n[nH]c1C	?
Cc1cccc(CC2CC(=O)N(c3ccccc3)C2=O)c1 (stereo not drawn)	3.4%
CC(=O)N1CCC2(CCN(Cc3cc(C(F)(F)F)cc(C(F)(F)F)c3)CC2)CC1	-5.8%
CN(C)S(=O)(=O)N1CCC(c2ccc(F)cc2)C(COc2ccc3c(c2)OCO3)C1 (stereo not drawn)	-1.0%
Cc1ccc(N(C(=O)CNC(=O)c2ccco2)C(C(=O)NC2CCCC2)c2cccnc2)cc1C (stereo not drawn)	0.0%

A portion of the library, so the mix of outcomes need not match the whole.
